# Source: PubChem
# KCNQ2 pot – KCNQ2 (rat) channel potentiation | CHO-K1 KCNQ2, FluxOR thallium flux fluorescence; stronger effect = higher value | B-score at 10 µM | actives 0.54% (n = 310,000);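 active = fluorescence ratio B-score at least 3 SD of library B-scores, with initial fluorescence B-score within 3 SD, cut at about 5.3 in these data; same plate scores as AID 2156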;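 also: B-score of peak minus minimum over baseline fluorescence ratio after K+ and Tl+ stimulus; positive B-score means potentiation of KCNQ2 with more thallium influx and brighter signal; only the inactives scoring about 0 or higher are listed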
# KCNQ2 pot baseline – further read-out of KCNQ2 pot, marked with its call; B-score; compound at 10 µM; measured here: initial fluorescence intensity artifact check;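 brightness before thallium and not channel activity; 0 = typical well and far values either way flag optical interference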
# * = called active by the depositor. These rows are one share of the data; the hit share may differ from the screen's.
SMILES,KCNQ2 pot,KCNQ2 pot baseline
CC1(C)Cc2c(sc(NC(=S)NC(=O)c3ccccc3)c2C(=O)O)CO1,0.76,1.64
CC(=O)NC(Cc1ccccc1)C(=O)O (centres undefined),1.42,-0.62
CN(C)CCOC(C)(c1ccccc1)c1ccccn1 (centres undefined),0.25,-1.61
CN1CCOC(c2ccccc2)c2ccccc2C1 (centres undefined),0.21,-0.07
Cc1c(NC(=O)c2cccnc2)c(=O)n(-c2ccccc2)n1C,0.33,-2.32
O=C(CCNNC(=O)c1ccncc1)NCc1ccccc1,0.13,1.41
COc1ccc(C(=O)NCc2ccc(OCCN(C)C)cc2)cc1OC,0.34,0.75
COc1ccc(/C=C/C(=O)Nc2ccccc2C(=O)O)cc1OC,1.84,-0.01
COC(=O)c1ccc(O)cc1,0.27,0.46
CC12CCC(CC1)C(C)(C)O2,0.02,0.03
Cc1cc(-c2ccccc2)nnc1NCCN1CCOCC1,0.89,0.99
Cn1c(=O)c2c(ncn2CC2OCCO2)n(C)c1=O,1.13,0.01
NC(=O)c1cccc(-c2cc(Nc3ccc(OC(F)(F)F)cc3)ncn2)c1,2.33,0.22
Cc1nc2ccccn2c(=O)c1CCN1CCC(C(=O)c2ccc(F)cc2)CC1,0.01,-0.06
O=C(NCCc1c[nH]c2ccccc12)c1cccnc1,1.41,-0.23

# Profiles from above.
# `CC1(C)Cc2c(sc(NC(=S)NC(=O)c3ccccc3)c2C(=O)O)CO1` as listed: KCNQ2 pot: 0.76; KCNQ2 pot baseline: 1.64
# `COc1ccc(/C=C/C(=O)Nc2ccccc2C(=O)O)cc1OC` as listed: KCNQ2 pot: 1.84; KCNQ2 pot baseline: -0.01

# Next part.
SMILES,KCNQ2 pot,KCNQ2 pot baseline
COc1cc2c(c(OC)c1OC)-c1c(cc3c(c1OC)OCO3)[C@@H](OC(C)=O)[C@H](C)[C@H](C)C2,0.14,0.62
CCN(CC)CCOC(=O)C1(c2ccccc2)CCCC1,1.6,-0.05
CC(COc1ccccc1)NC(C)C(O)c1ccc(O)cc1 (centres undefined),0.02,-0.02
O=C(c1ccc(F)cc1)C1CCN(CCn2c(=O)[nH]c3ccccc3c2=O)CC1,0.07,0.09

# Ordered by length of the SMILES (ascending): five of the compounds above.
SMILES,KCNQ2 pot,KCNQ2 pot baseline
CCN(CC)CCOC(=O)C1(c2ccccc2)CCCC1,1.6,-0.05
Cn1c(=O)c2c(ncn2CC2OCCO2)n(C)c1=O,1.13,0.01
Cc1nc2ccccn2c(=O)c1CCN1CCC(C(=O)c2ccc(F)cc2)CC1,0.01,-0.06
O=C(c1ccc(F)cc1)C1CCN(CCn2c(=O)[nH]c3ccccc3c2=O)CC1,0.07,0.09
COc1cc2c(c(OC)c1OC)-c1c(cc3c(c1OC)OCO3)[C@@H](OC(C)=O)[C@H](C)[C@H](C)C2,0.14,0.62
